# BJeLR lethal: BJeLR cell viability loss. hit rate 0.17% among 300,000. inhibition, % (test concentration not listed). AID 1554. BJeLR (HRASV12) viability, CellTiter-Glo ATP luminescence, 48 h; reference of the scale not given here;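 active = replicate mean above 50%; inconclusive = above 50% but judged a plate artefact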;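 note: 50 nL library stock added to about 25 µL; numbers are from one replicate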
# ugtP null kill: growth inhibition of S. aureus ugtP deletion strain | S. aureus RN4220 ugtP deletion, OD600 growth, 16 h; some inactives read as strong as hits | growth inhibition, % (concentration not given with the values) | hit rate 0.54% among 330,000;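 active = z-score under -3 and OD600 up to 0.15 on both plates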;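 note: plate controls were untreated wells for no effect and antibiotic for full effect; wells of about 80 µL received 100 nL stock; the first replicate is given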
# Autofluor counter: compound fluorescence in toxin protease inhibitor counterscreen. compound autofluorescence counterscreen, microsphere flow cytometry; hits give high values. hit rate 3.1% among 360,000. AID 624483. fluorescence intensity (test concentration not listed);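 active = at least 3 SD above the mean of all compounds, about 16000 in these data; inconclusive = too few beads counted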;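 note: 100 nL of 1 mM stock went into each well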
# RN4220 kill: S. aureus RN4220 growth inhibition. AID 1259311. hit rate 0.33% among 330,000. OD600, 16 h. inhibition, % (test concentration not listed);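 active = z-score of -3 or lower and OD600 up to 0.18 on both plates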;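 note: plate controls were untreated cells for no effect and reference antibiotic for full effect; stock transfer was 100 nL into about 80 µL; one replicate is shown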
# Mtb hypoxia inh: inhibitors of hypoxia-regulated fluorescent reporter in Mycobacterium tuberculosis | M. tuberculosis hypoxia-regulated fluorescent reporter, fluorescence | fluorescence inhibition, % (test concentration not listed) | hit rate 0.1% among 300,000;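 active = 35 to 45% if threefold the growth effect, above 45% if 1.5-fold the growth effect; inactive = the rest, general growth blockers included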;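 note: wells of about 50 µL received 100 nL stock; 0% = vehicle wells and 100% = reference inhibitor wells; whole bacteria with a GFP reporter of the hypoxia response; strong numbers were not always called active; many hits fall short of the cut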
# PrP UTR inh: suppresses PrP 5' UTR mRNA reporter expression. inhibition, % (test concentration not listed). cell-based PrP 5' UTR mRNA reporter, plate reader. hit rate 0.35% among 340,000;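 active = every replicate at 50% or more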;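 note: 0 = median of the neutral control wells; tested in H4 reporter cells; numbers are from one replicate; inactives centre near -14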
# Mtb hypoxia inh growth: second read-out of Mtb hypoxia inh, no call of its own (marks repeat the call); growth inhibition, %; measured here: M. tuberculosis growth (absorbance);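 0% = vehicle and 100% = reference antibiotic; read after six days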
# * = called active by the depositor; ? = inconclusive; . = not tested or not shown.
1. COc1ccc(NC(=O)CNC(=O)c2nn(-c3ccc(OC)c(OC)c3)c(=O)c3ccccc23)c(OC)c1
2. COC(C[C@@H]1O[C@@H]1[C@H](O)[C@H](C)OCc1ccccc1)OC
3. COCCNC(=O)C(c1cccs1)N(C(=O)Cn1nnc2ccccc21)c1ccc(OC)cc1 (stereo unspecified)
4. CCOC(=O)c1cc(-c2csc(Nc3c(C)cc(C)cc3C)n2)on1
5. COc1ccc(CCN2C(=S)N(C)C(=O)C2CC(=O)Nc2ccc(F)cc2)cc1 (stereo unspecified)
6. CC(=O)COc1nc2c(c(-c3ccco3)c1C#N)CCc1ccccc1-2
7. CCOC(=O)c1cc(C)sc1N=CC1=C(O)CCCC1=O
8. O=C(O)c1cc(-c2cccs2)nn1-c1ccccc1
Compound,1,2,3,4,5,6,7,8
BJeLR lethal,-8,4,1,-8,-3,-17,.,-28
ugtP null kill,-3,.,12,3,-3,17,0,5
Autofluor counter,3204,3964,3339,.,.,.,.,3198
RN4220 kill,6.2,.,5.3,-1.2,0.8,3.3,-0.7,2.9
Mtb hypoxia inh,-10,.,.,.,-1,5,-11,-5
Mtb hypoxia inh growth,6,.,.,.,0,4,-5,-2
PrP UTR inh,-8,-41,-5,-10,.,.,.,-14

9. O=C(NC1CCCCCC1)C(=S)NC1CCCCC1
10. Cc1ccc(-c2ccccc2NC(=O)C2C3C=CC(C3)C2C(=O)O)o1 (stereo unspecified)
11. O=P(O)(O)C(O)C(F)(F)C(F)(F)C(F)(F)C(F)F (stereo unspecified)
12. Cc1ccccc1NC(=S)NCCc1ccccc1
13. O=C(c1ccccn1)N1CCN(S(=O)(=O)c2ccc3ccccc3c2)CC1
14. CC(C)C(NC(=O)c1c(F)cccc1F)C(=O)NC1CC(C)(C)NC(C)(C)C1 (stereo unspecified)
15. Cn1cccc1C=NN1CCN(c2ccccn2)CC1
16. S=C(NCc1ccccc1)Nc1cccc2ccccc12
Compound,9,10,11,12,13,14,15,16
BJeLR lethal,19,10,-5,-2,-2,-10,.,-7
ugtP null kill,3,-3,3,9,23,13,-2,4
Autofluor counter,3821,5065,6741,2088,3263,5304,.,?
RN4220 kill,10,6.3,-0.8,5.0,7.2,-1.8,7.6,0.7
Mtb hypoxia inh,1,19,4,-2,-2,-2,1,7
Mtb hypoxia inh growth,8,8,5,5,-1,4,4,-1
PrP UTR inh,-79,-14,-20,-13,-2,-13,.,5

17. Cc1cc(OC(=O)N2CCCCC2)cc(C)c1Cl
18. Cc1ccc(S(=O)(=O)N=C(c2ccccc2)N(C)C)c(C)c1
19. COc1ccc(C=Nn2nnnc2N)c(OC)c1
20. Cc1cc(Cl)ccc1NC(=S)NCc1ccco1
21. COC(=O)c1ccnc(/C=N/O)c1
22. CCOc1cc(C)nc(N2CCC(C(=O)Nc3ccccc3OCC)CC2)n1
23. COc1ccc(C(=O)C(CN2CCCC2)c2ccccc2)cc1 (stereo unspecified)
24. COc1ccc(S(=O)(=O)NC(C)C(=O)Nc2cccc(C(C)=O)c2)cc1 (stereo unspecified)
Compound,17,18,19,20,21,22,23,24
BJeLR lethal,0,.,.,10,-1,-2,14,6
ugtP null kill,17,10,14,-5,.,2,.,0
Autofluor counter,4158,.,.,2128,8230,4498,4776,5090
RN4220 kill,7.4,2.7,2.1,5.6,.,4.3,.,-2.0
Mtb hypoxia inh,.,-3,8,15,.,14,.,.
Mtb hypoxia inh growth,.,12,-2,8,.,7,.,.
PrP UTR inh,-87,.,.,-20,-30,-22,-13,-14

# Quoted from the listing:
# compound 24 in BJeLR lethal is entered as 6
# compound 23 in BJeLR lethal is entered as 14
# compound 19 in ugtP null kill is entered as 14
# compound 22 in ugtP null kill is entered as 2

# Full records as entered above. Order of screens: BJeLR lethal	ugtP null kill	Autofluor counter	RN4220 kill	Mtb hypoxia inh	Mtb hypoxia inh growth	PrP UTR inh
# `CCOc1cc(C)nc(N2CCC(C(=O)Nc3ccccc3OCC)CC2)n1` is listed with -2	2	4498	4.3	14	7	-22
# `Cc1cc(Cl)ccc1NC(=S)NCc1ccco1` is listed with 10	-5	2128	5.6	15	8	-20
# `COC(=O)c1ccnc(/C=N/O)c1` is listed with -1	.	8230	.	.	.	-30
# `COc1ccc(S(=O)(=O)NC(C)C(=O)Nc2cccc(C(C)=O)c2)cc1` (stereo unspecified) is listed with 6	0	5090	-2.0	.	.	-14

# Next part:
25. COC(=O)C1(CC2CC(c3ccccc3)=NO2)CCN(C(=O)OC(C)(C)C)CC1 (stereo unspecified)
26. c1ccc([C@H]2CC3C[C@@H](c4ccccc4)N2O3)cc1
27. O=S(=O)(NCc1ccccc1F)c1cccc(S(=O)(=O)N2CCOCC2)c1
28. Cc1cc(F)ccc1S(=O)(=O)N1CCCOC1CNC(=O)C(=O)NCC(C)C (stereo unspecified)
29. COc1ccc(NC(=O)CN(C)CC(=O)Nc2cccc(C(F)(F)F)c2)cc1
30. COc1ccccc1OCCSc1nc(C)c(Cc2ccccc2)c(=O)[nH]1
31. COc1ccc(N(CC(=O)NCc2ccc(Cl)cc2)S(=O)(=O)c2c(C)nn(C)c2C)cc1
32. O=c1ccc2ccc(O)cc2o1
Compound,25,26,27,28,29,30,31,32
BJeLR lethal,-5,-5,4,-6,-1,4,-10,.
ugtP null kill,-1,5,2,3,9,-7,-1,-5
Autofluor counter,4322,2149,4708,5282,4455,.,6330,5099
RN4220 kill,3.7,2.1,5.5,2.0,2.9,5.9,1.1,-0.2
Mtb hypoxia inh,7,.,2,7,10,-3,9,.
Mtb hypoxia inh growth,10,.,2,3,0,7,4,.
PrP UTR inh,-6,-15,-27,-21,-12,.,-13,-2

33. CC1CC(CC(=O)NNc2nc(-c3ccccc3)cs2)C(=O)O1 (stereo unspecified)
34. CN(C)c1nc(N)c([N+](=O)[O-])c(NCCO)n1
35. Cc1csc(NC(=O)c2ccc(COc3ccccc3)o2)n1
36. CCOc1ccc(OCC)c(NC(=O)CCSCCc2ccccn2)c1
37. N/C(=N\OC(=O)CCC1CCCC1)c1cccc([N+](=O)[O-])c1
38. CN1C(=O)Cc2cc(S(=O)(=O)N3CCN(c4ccccc4F)CC3)ccc21
39. CC(C)N(C(=O)COC(=O)c1ccccc1C(=O)N1CCN(c2ccc(F)cc2)CC1)C(C)C
40. COc1ccccc1N1CCN(C(=O)C2CCCN(S(=O)(=O)c3ccc4c(c3)CCCN4C(C)=O)C2)CC1 (stereo unspecified)
Compound,33,34,35,36,37,38,39,40
BJeLR lethal,3,-2,-4,-10,2,15,1,17
ugtP null kill,-9,.,-13,7,.,-2,0,.
Autofluor counter,4207,8889,6199,4127,2139,6164,9941,5146
RN4220 kill,0.0,.,7.0,4.8,.,3.7,-0.5,.
Mtb hypoxia inh,-16,.,8,0,.,6,3,.
Mtb hypoxia inh growth,-1,.,8,14,.,7,2,.
PrP UTR inh,-7,-17,-32,-19,-24,-7,-16,-10

41. COc1ccc(C(=O)NC2CC2)cc1OC1CCN(Cc2ccc(F)c(F)c2)CC1
42. COc1ccccc1NC(=O)Cn1c(=O)n(CCc2c[nH]c3ccccc23)c(=O)c2cccnc21
43. N/C(=N\OC(=O)Cc1cccc2ccccc12)c1ccccn1
44. CCn1nc(C(=O)OCC(=O)N(CCC#N)c2ccccc2)c2ccccc2c1=O
45. COc1ccccc1/C=N/NC(=O)c1ccccc1NS(=O)(=O)c1ccc(C)cc1
46. O=C(/C=C/c1ccco1)NC1CCCC1
47. Cc1ccccc1C1=N/C(=C/c2cccnc2)C(=O)O1
48. CS(=O)(=O)N1CCN(c2ccc(NC(=S)NC(=O)c3ccc4c(c3)OCO4)cc2)CC1
Compound,41,42,43,44,45,46,47,48
BJeLR lethal,-3,8,-14,.,0,8,-9,-1
ugtP null kill,-3,6,-5,2,.,8,7,93*
Autofluor counter,5818,5842,4408,3742,2015,4602,2331,2558
RN4220 kill,5.0,4.8,1.4,1.7,.,6.6,-0.2,6.6
Mtb hypoxia inh,10,7,.,1,.,24,-5,-2
Mtb hypoxia inh growth,-4,7,.,-4,.,33,6,-6
PrP UTR inh,1,-10,-47,-7,-30,-41,-21,14

# Four of these compounds, set out differently.
nr | SMILES | BJeLR lethal | ugtP null kill | Autofluor counter | RN4220 kill | Mtb hypoxia inh | Mtb hypoxia inh growth | PrP UTR inh
41 | COc1ccc(C(=O)NC2CC2)cc1OC1CCN(Cc2ccc(F)c(F)c2)CC1 | -3 | -3 | 5818 | 5.0 | 10 | -4 | 1
42 | COc1ccccc1NC(=O)Cn1c(=O)n(CCc2c[nH]c3ccccc23)c(=O)c2cccnc21 | 8 | 6 | 5842 | 4.8 | 7 | 7 | -10
43 | N/C(=N\OC(=O)Cc1cccc2ccccc12)c1ccccn1 | -14 | -5 | 4408 | 1.4 | . | . | -47
44 | CCn1nc(C(=O)OCC(=O)N(CCC#N)c2ccccc2)c2ccccc2c1=O | . | 2 | 3742 | 1.7 | 1 | -4 | -7

# Additional results follow:
49. C=CCSc1nnc(Cc2cc(=O)[nH]c(=O)[nH]2)n1-c1cc(C)ccc1C
50. CN(C)C(=O)CN1c2cccc3cccc(c23)S1(=O)=O
51. O=C(c1cn(-c2ccccc2)nc1-c1cccnc1)N1CCN(S(=O)(=O)c2cccc(F)c2)CC1
52. O=C(Nc1ccccc1N1CCOCC1)C1CCN(S(=O)(=O)c2ccc(Cl)cc2)CC1
53. COC(=O)c1ccc(/C=N/NC(=O)c2cccc(F)c2)cc1
54. COc1cc(NC(=O)c2cc(C(C)C)on2)cc(OC)c1OC
55. CCn1nc(C)c(CN2CCN(Cc3ccsc3)C(CCO)C2)c1C (stereo unspecified)
56. Nc1nonc1-n1nnc(C(=O)NN=Cc2ccc(Cl)cc2Cl)c1CN1CCCCC1
Compound,49,50,51,52,53,54,55,56
BJeLR lethal,-4,0,.,9,0,-2,6,.
ugtP null kill,6,-11,-4,-6,.,0,3,6
Autofluor counter,4590,3651,6894,4451,11163,5849,3986,.
RN4220 kill,-0.1,4.4,-1.9,-1.9,.,4.6,7.7,0.9
Mtb hypoxia inh,5,7,-8,-14,.,5,2,-7
Mtb hypoxia inh growth,8,-2,-1,8,.,0,-1,-7
PrP UTR inh,-31,-24,-7,-17,-58,4,-23,.

57. C=CCn1cnc2c(c1=O)c1nc3ccccc3nc1n2N=Cc1cccc(OC)c1
58. CC1C2CC(C/C2=N/NC(=O)c2cccs2)C1(C)C (stereo unspecified)
59. NS(=O)(=O)c1ccc(CCNC(=O)/C=C/c2ccccc2[N+](=O)[O-])cc1
60. Cc1cc(C(=O)Nc2ccc(C)c(S(=O)(=O)N3CCOCC3)c2)c2ccccc2n1
61. Cc1nc(N)sc1-c1csc(Nc2ncccn2)n1
62. Cc1ccc(C=NNC(=O)c2n[nH]c3c2CCCC3)cc1
63. O=C(/C=C/Nc1cccc([N+](=O)[O-])c1)c1cccs1
64. COc1ccc(NS(=O)(=O)c2ccc(C)c(C(=O)N(C)Cc3ccc(C)cc3)c2)cc1
Compound,57,58,59,60,61,62,63,64
BJeLR lethal,.,3,-6,.,-3,.,-2,5
ugtP null kill,-2,.,-16,-4,-4,7,-5,1
Autofluor counter,.,2209,4034,?,4056,.,9621,.
RN4220 kill,4.1,.,-0.5,1.0,-1.2,1.7,5.7,4.8
Mtb hypoxia inh,12,.,-8,-14,-2,-2,1,10
Mtb hypoxia inh growth,6,.,5,-3,7,-11,10,3
PrP UTR inh,.,-54,-28,.,-72,.,-34,-13

65. Nn1c(COc2ccc(Cl)cc2)n[nH]c1=S
66. Cc1cc(NC(=O)c2ccc(C#N)cc2)n(-c2ccccc2)n1
67. Cc1ccc(CN2CC(C(=O)NNC(=O)Cn3ccc(C(F)(F)F)n3)CC2=O)cc1 (stereo unspecified)
68. COc1cc(NC(=O)CN2C3CCC2CC(O)(c2cccnc2)C3)cc(OC)c1 (stereo unspecified)
Compound,65,66,67,68
BJeLR lethal,4,.,.,1
ugtP null kill,8,-2,-1,8
Autofluor counter,3312,3044,3991,3845
RN4220 kill,0.2,1.9,2.6,0.8
Mtb hypoxia inh,12,13,5,.
Mtb hypoxia inh growth,4,11,0,.
PrP UTR inh,-19,-15,-17,-19
